# MT1-MMP reporter – inhibitors of MT1-MMP promoter transcription, cell-based, luciferase reporter, luminescence (AID 618) | MT1-MMP promoter luciferase reporter cells, luminescence | calls from a first round at 10 µM; hits with a dose series show EC50 in µM | 87,000 compounds, 0.62% hits;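 active = over half of the reporter light lost at 10 µM or EC50 under 50 µM; inactive = the rest and hits that failed the dose series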;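 note: actives suppress MT1-MMP promoter-driven transcription so potencies describe inhibitors; HT1080 fibrosarcoma cells; overnight exposure; toxic or luciferase-blocking compounds were not removed from the actives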
# WNV protease inh – inhibitors of WNV NS2B-NS3 protease, primary screen, biochemical, fluorogenic substrate; Genome polyprotein (West Nile virus), P06935; fluorogenic substrate Ex360/Em465; active compounds read low; z-score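 (tested at a level between 10 and 100 µM)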; 65,000 compounds, 0.18% hits; AID 577, 2007;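 active = z-score at -3 or under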;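 note: score is relative to mean and spread of the compound wells of a plate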
# Target sequence (P06935 1371-1501 limits assumed): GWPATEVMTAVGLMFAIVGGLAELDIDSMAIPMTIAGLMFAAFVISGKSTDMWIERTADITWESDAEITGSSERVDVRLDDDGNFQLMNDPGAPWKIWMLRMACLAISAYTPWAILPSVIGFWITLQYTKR
# Target sequence (P06935 1502-1679 limits assumed): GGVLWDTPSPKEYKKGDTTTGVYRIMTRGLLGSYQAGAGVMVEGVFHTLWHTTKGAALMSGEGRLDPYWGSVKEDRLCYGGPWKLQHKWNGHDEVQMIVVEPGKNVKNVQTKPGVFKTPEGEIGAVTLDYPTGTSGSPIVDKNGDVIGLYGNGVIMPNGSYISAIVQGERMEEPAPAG
# Hsc70 – Hsc70 inhibitors, probe displacement, primary screen, biochemical, fluorescence polarization (AID 568) | Hsc70 fluorescence polarization, probe displacement; higher % means a stronger effect; strong numbers were not always called active | Heat shock cognate 71 kDa protein (Homo sapiens) | one-dose displacement, % at 20 µM; IC50 in µM for titrated hits | 83,000 tested, under 10 active;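 active = displacement above 50% without optical interference and an IC50 on retest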;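 note: ATPase domain with a fluorescein-tagged ATP probe; 0% = vehicle and 100% = excess ADP; read after one hour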
# An asterisk follows results filed as active; i = inactive; nt = not tested or not shown.
Compound,MT1-MMP reporter,WNV protease inh,Hsc70
O=S(=O)(c1ccccc1)N1CCN(c2nnnn2-c2ccccc2)CC1,i,-0.72,6.4%
CCOC(=O)Nc1cccc(OCC(=O)Nc2ccc(OC)cc2OC)c1,i,-0.22,3.5%
CCCCn1c(C(C)NC(=O)CC)nc2ccccc21 (centres undefined),i,-0.85,0.4%
Cc1nn(C)cc1CNC(=O)CCC(=O)O,i,-1.2,-5.1%
COC(=O)c1ccc(-c2ncc(-c3cccc4ccccc34)o2)cc1,i,nt,-6.6%
Cc1cccc(Nc2nc3c(c(=O)n(C)c(=O)n3C)n2CC(O)CO)c1 (centres undefined),i,0.87,2.1%
O=C(Nc1nccs1)c1ccc(S(=O)(=O)NCc2cccs2)cc1,i,-0.05,0.5%
CCCOc1ccc(N2C(=O)CC(SCCN)C2=O)cc1 (centres undefined),i,-0.21,-0.6%
COc1cccc(OC)c1C(=O)n1nc(C)cc1C,i,-0.57,3.0%
CCCCOC(=O)C1=C(C)NC2(O)c3ccccc3C(=O)C12O (centres undefined),i,-0.34,-1.9%
COC(=O)C1CCC(C)(C(=O)Nc2ccccc2)C1(C)C (centres undefined),i,-0.93,-6.8%
CCOC(=O)C(Cc1ccccc1)NC(=O)Cn1nnc(-c2ccc(SC)cc2)n1 (centres undefined),i,nt,2.7%
CCCCn1nnnc1SCC(=O)Nc1ccc(F)cc1,i,1.2,1.9%
CCOC(=O)c1ccc(NS(=O)(=O)c2ccc3c(c2)CCCN3C(C)=O)cc1,i,1,3.6%
Cn1nc(CC(=O)NCc2cccc3ccccc23)c2ccccc2c1=O,i,nt,3.6%
c1ccc2c(Oc3ccc4c(c3)OCO4)nncc2c1,i,1.1,-3.3%
C1=C(c2cccc3ccccc23)N2CCN=C2S1,i,0.67,2.0%
COc1ccccc1N1CCN(C(=O)c2ccoc2C)CC1,i,0.52,0.2%
O=c1cc(N2CCN(c3ccccc3)CC2)[nH]c(=O)n1-c1ccccc1Cl,i,-0.65,1.9%
CCN(CC)CCn1c(=S)[nH]c2ccccc2c1=O,i,-0.17,0.0%
Fc1ccc(NCc2cccnc2)cc1,i,-0.04,-4.3%
CC(=O)Nc1ccn(-c2ccccc2)n1,i,0.45,6.0%
O=C(Nc1ccc(Cl)cn1)c1cc(S(=O)(=O)N2CCCCC2)ccc1Cl,i,0.13,-6.3%
CCOc1c2c(nc3ccc(Cl)cc13)CCC2,i,0.66,3.3%
CCCN(CCC)CC(=O)Nc1cccc2c1OCO2,i,nt,4.5%
Cc1ccc2c(c1)N(CC(=O)NC1CCCc3ccccc31)C(=O)CO2 (centres undefined),i,-0.75,-8.1%
CCOc1ccc(OCC)c(NS(=O)(=O)c2ccc3c(c2)n(C)c(=O)c(=O)n3C)c1,i,0.15,4.8%
CCN(CC)C(=O)CN(c1ccc2c(c1)OCO2)S(C)(=O)=O,i,nt,-1.1%
CCN(CC)c1ccc(CN(C(=O)c2cc(OC)c(OC)c(OC)c2)C2CCS(=O)(=O)C2)cc1 (centres undefined),i,0.69,2.2%
COc1ccccc1N1CCN(C(=O)CSc2nnc3n2C(C)(C)Cc2ccccc2-3)CC1,i,-0.11,3.0%
CC1=C(C(=O)OCc2ccccc2)C(c2ccc(N3CCOCC3)cc2)NC(=O)N1 (centres undefined),i,-0.84,-0.2%
CC(C)c1ccc(-c2nc3c([nH]2)c(=O)n(C)c(=O)n3C)cc1,i,0.0065,1.1%
COc1ccc(-c2nc(-c3cccc(C(F)(F)F)c3)no2)cc1OC,i,0.38,2.2%
Cc1ccc(S(=O)(=O)N2CCN(S(=O)(=O)c3ccc(C)cc3)C2)cc1,i,nt,3.4%
Cn1c(=O)c2c(nc(N3CCCCC3)n2C)n(C)c1=O,i,0.17,-7.5%
CS(=O)(=O)c1ccc(N2CCN(C3CC(=O)NC3=O)CC2)cc1 (centres undefined),i,-1.1,-5.0%
CCc1ccc2oc(=O)cc(CN3CCN(CCO)CC3)c2c1,i,-0.57,-3.1%
CN(C)CCNc1c2c(c(C#N)c3nc4ccccc4n13)CCCC2,i,0.32,2.8%
CN1CCN(S(=O)(=O)c2ccc(-c3ccc(Cl)cc3)cc2)CC1,i,-0.05,6.4%
Cc1ccc(C(OC(=O)c2ccco2)C(=O)NC2CCCCC2)cc1 (centres undefined),i,nt,-3.1%
O=C(Nc1cccc(-c2nc3ccccc3o2)c1)c1ccc(N2C(=O)C3C4C=CC(C4)C3C2=O)cc1 (centres undefined),i,nt,2.2%
Clc1cccc2sc(N3CCOCC3)nc12,i,-1.1,-5.6%
CN(C)c1ccc(C(=O)C(O)c2ccc(C(C)(C)C)cc2)cc1 (centres undefined),i,-0.7,-2.0%
CCOC(=O)C1CCN(c2c(N3CCN(Cc4ccccc4)CC3)c(=O)c2=O)CC1,i,-0.49,-2.4%
COc1cccc(NC(=O)CN(C)S(=O)(=O)c2ccc(C)cc2)c1,i,0.81,-0.4%
CC(C)Sc1nnc([C@H](Cc2c[nH]c3ccccc23)NC(=O)OC(C)(C)C)o1,i,nt,2.5%
CCCS(=O)(=O)N1CCC(C(=O)c2cccc(C(F)(F)F)c2)CC1,i,0.75,-3.0%
O=C(CSc1nc2c(c(=O)n1-c1ccc(F)cc1)SCC2)Nc1ccc2c(c1)OCO2,i,nt,5.6%
Cc1ccc(-c2csc(NC(=O)c3cccc(S(=O)(=O)N4CCN(C)CC4)c3)n2)cc1,i,-0.52,-5.8%
O=C(NCc1ccco1)c1cc(-c2ccc(Cl)cc2)on1,i,0.56,-4.7%
COc1ccc(-n2cnnc2SCC(=O)c2cc(C)n(Cc3cccs3)c2C)cc1,i,0.6,-32%
CCCCN(CC)S(=O)(=O)N1CCC(C(=O)NCc2ccc(F)cc2)CC1,i,-0.6,-7.1%
CC1=CC=CC2=NC(=O)CC(C)(C(=O)N(CC(=O)NC3CCCC3)c3ccccc3C)N12 (centres undefined),i,nt,-3.1%
CNC(=O)NC1CCCCc2sccc21 (centres undefined),i,-0.26,-5.1%
O=C(O)Cn1c(SCCOc2ccccc2)nc2ccccc21,i,0.14,-1.5%
Cc1ccc(CN2C(=O)CCC2C(=O)NCc2ccc(F)cc2)cc1 (centres undefined),i,-0.14,4.2%
CCSc1nc2ccccc2n1S(=O)(=O)c1ccccc1,i,1,-2.9%
O=C1Nc2ccccc2C12NCCc1c2[nH]c2ccccc12 (centres undefined),i,nt,1.8%
CCCNC(=O)CC(NS(=O)(=O)c1ccc(Cl)cc1)c1ccco1 (centres undefined),i,0.7,6.9%
O=C(Nc1ccc2c(c1)OCO2)C1COc2ccccc2O1 (centres undefined),i,1.3,0.1%

# 6 compounds picked at random from those above:
Compound,MT1-MMP reporter,WNV protease inh,Hsc70
COc1ccc(-n2cnnc2SCC(=O)c2cc(C)n(Cc3cccs3)c2C)cc1,i,0.6,-32%
O=c1cc(N2CCN(c3ccccc3)CC2)[nH]c(=O)n1-c1ccccc1Cl,i,-0.65,1.9%
O=S(=O)(c1ccccc1)N1CCN(c2nnnn2-c2ccccc2)CC1,i,-0.72,6.4%
Cc1ccc(-c2csc(NC(=O)c3cccc(S(=O)(=O)N4CCN(C)CC4)c3)n2)cc1,i,-0.52,-5.8%
COc1cccc(NC(=O)CN(C)S(=O)(=O)c2ccc(C)cc2)c1,i,0.81,-0.4%
COc1ccccc1N1CCN(C(=O)CSc2nnc3n2C(C)(C)Cc2ccccc2-3)CC1,i,-0.11,3.0%

# Later entries.
Compound,MT1-MMP reporter,WNV protease inh,Hsc70
O=C(CN1C2CCC1CC(NC(=O)NC1CCCCC1)C2)NC1CC1 (centres undefined),i,-1.2,1.1%
Cc1[nH]c2ccccc2c1SCCN,i,0.37,5.4%
CCOC(=O)c1c(NC(=O)c2ccc(-n3cnnn3)cc2)sc2c1CCCC2,i,0.11,-4.2%
CCCCc1ccc(S(=O)(=O)NCCc2ccncc2)cc1,i,-0.8,1.8%
CCOc1ccc(NC(=O)c2ccc(F)c(S(=O)(=O)N3CCN(c4ccccn4)CC3)c2)cc1,i,1,-1.2%
COCCn1c(NCc2ccccc2)nc2c1c(=O)[nH]c(=O)n2C,i,-0.03,1.1%
CN1CCN(C(=O)c2ccc(Cl)c(S(=O)(=O)N3CCCCC3)c2)CC1,i,-0.4,-3.4%
O=C(O)CC(C(=O)Nc1cccc(C(F)(F)F)c1)C1CCCO1 (centres undefined),i,-0.2,0.4%
CCOC(=O)C(C)CC(C)C(=O)N1CCOCCOCCN(C(=O)C(C)CC(C)C(=O)OCC)CCOCC1 (centres undefined),i,nt,-0.2%
Cn1ncc(Cl)c1C(=O)Nc1ccc(Cl)cn1,i,nt,-2.8%
CC(=O)c1cccc(NC(=O)CN2C(=O)NC3(CCCCCCC3)C2=O)c1,i,-0.58,-4.6%
c1ccc2c(c1)c1ccccc1n2CN1CCOCC1,i,nt,2.3%
Cn1c(C(=O)NC2CCCCC2)cc2c(=O)n(C)c3ccccc3c21,i,0.05,-0.9%
FC(F)(F)c1nnc2ccc(NCn3nnc4ccccc43)nn12,i,-0.09,-0.1%
Cn1c(SCC(=O)Nc2ccc(N3CCOCC3)c(Cl)c2)nnc1-c1ccccc1,i,0.39,3.5%
Cn1c(Cc2ccccc2)nnc1SCC(=O)Nc1ccc2c(c1)OCO2,i,0.04,5.9%
CCc1ccc(C2CC(=O)N3CN(c4ccccc4)CSC3=C2C#N)cc1 (centres undefined),i,-0.75,4.2%
CCOC(=O)c1ccc(NC(=O)C2(c3ccccc3)CCOCC2)cc1,i,nt,4.4%
COc1ccc(-n2c(Cc3cccn3C)nnc2SCC(=O)NCc2ccc(F)cc2)cc1,i,-1.3,3.9%
CCSc1nc2sc3c(c2c(=O)n1C1CCCCC1)CCN(C)C3,i,0.76,-4.5%

# A section from the list above, as a working copy:
Compound,MT1-MMP reporter,WNV protease inh,Hsc70
O=S(=O)(c1ccccc1)N1CCN(c2nnnn2-c2ccccc2)CC1,i,-0.72,6.4%
CCOC(=O)Nc1cccc(OCC(=O)Nc2ccc(OC)cc2OC)c1,i,-0.22,3.5%

# Additional compounds follow:
Compound,MT1-MMP reporter,WNV protease inh,Hsc70
Cc1ccc2nc3c(c(N)c2c1)CCN3c1ccccc1,i,-0.61,4.1%
O=C(OCc1nc2ccccc2s1)C1CCN(S(=O)(=O)c2cccs2)CC1,i,-1.7,-8.5%
COC(=O)c1cccc(Cn2c(Cl)c(/C=N/NC(=O)c3ccccc3Cl)sc2=O)c1,i,nt,-6.3%
O=C(CSCCO)Nc1ccc(C2CCCCC2)cc1,i,0.48,-2.6%
CN(c1ccccc1)S(=O)(=O)c1ccc(C(=O)Nc2nccs2)cc1,i,-0.15,4.7%
CC1Oc2ccccc2N(CC(=O)NCC2CCCO2)C1=O (centres undefined),i,-0.98,-1.0%
CC(=O)N(C)/C=C1\Sc2ccccc2C1=O,i,nt,-0.3%
CC1(c2ccccn2)Nc2ccccc2-c2nc3ccccc3n21 (centres undefined),i,0.05,-3.6%
CN1CCN(c2ccccc2NC(=O)C(Cc2ccccc2)n2cccc2)CC1 (centres undefined),i,2.8,-0.3%
O=C(OC1CCCCC1=O)c1cc(=O)c2ccccc2o1 (centres undefined),i,-0.46,2.4%
O=C(NCCN1CCOCC1)c1ccc(CS(=O)(=O)Cc2ccccc2F)o1,i,0.62,3.6%
CN(C)c1nc(C(N)=O)nc(N2CCOCC2)n1,i,nt,0.1%
O=C(Nc1cccs1)Nc1ccccc1Cl,i,1.7,2.9%
CN1CCN(C2=C(Cl)C(=O)N(Cc3ccccc3)C2=O)CC1,i,-0.45,3.4%
COc1cccc(-c2cc(N)nn2C(=O)Nc2ccc(Cl)cc2)c1,i,0.43,-2.7%
O=c1oc2ccc3ccccc3c2c2c1SC(C(F)(F)F)C2 (centres undefined),i,nt,-0.9%
CCOc1ccc(OCc2ccc(C(=O)Nc3cccnc3)o2)cc1,i,nt,2.7%
O=C(COC(=O)c1ccncc1)NC(=O)C1CCCCC1,i,nt,1.7%
O=C(NO)c1ccc(C(=O)N(C2CCCCC2)C2CCCCC2)cc1,i,-1.1,-0.7%
Cc1ccc(S(=O)(=O)NCc2cn3c(C)csc3n2)cc1,i,0.26,-5.1%
O=C(Nc1sc2c(c1-c1nc3ccccc3[nH]1)CCCC2)C1CCCC1,i,nt,2.4%
CCOC(=O)COC(=O)c1ccc(Oc2cc(C)nc(SC)n2)cc1,i,nt,-4.2%
CC(C)(C)NC(=O)C1CCC(C)(C(=O)O)C1(C)C (centres undefined),i,0.16,-1.8%
CC1=C(C(=O)Nc2ccccc2)C(c2ccco2)C(C#N)=C(SCC(=O)OC(C)C)N1 (centres undefined),i,-1.1,-6.3%
CC(=O)OC(C)(CCC(C)(OC(C)=O)C(C)=O)C(C)=O (centres undefined),i,-0.15,1.6%
CNC(=O)CN(c1cc(C)ccc1C)S(C)(=O)=O,i,0.1,0.1%
CCOC(=O)c1c(NC(=O)c2noc3c2CCCC3)sc(C)c1C,i,-1,1.5%
Cc1ccc(N(CC(=O)NCC2CCCO2)C(=O)CCC(=O)Nc2ccccn2)cc1C (centres undefined),i,nt,0.4%
